# Compound activity (PubChem BioAssay)
# T cruzi repl – inhibitors of intracellular T. cruzi growth, primary screen, luminescence, NIH3T3 host cells; AID 1885, 2009; inhibition, % (concentration not given with the values); T. cruzi beta-gal in NIH3T3, 90 h; hit rate 1.4% among 300,000;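 active = mean inhibition across valid replicates above about 55%, limit read from the data; inconclusive = mean below that limit but half or more replicates reach it; inactive = mean below it, under half of replicates reach it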;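 also: signal also drops with host cell toxicity which is not excluded here; 0% = plate median of DMSO wells and 100% = zero luminescence signal; higher percent means less beta-gal luminescence so fewer parasites; stock transfer was 50 nL into about 50 µL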
# ALR inh – inhibitors of human ALR sulfhydryl oxidase, primary screen, biochemical, H2O2 detection, HRP-luminol luminescence, single point. FAD-linked sulfhydryl oxidase ALR (Homo sapiens), P55789. purified ALR, DTT oxidation. inhibition, % (no concentration beside the values). hit rate 3.8% among 290,000. AID 485317, 2010;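 active = mean and each replicate at 75% or more; inconclusive = only one of the two met; inactive = neither met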;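 also: stock transfer was 7.5 nL into about 7.5 µL; 0% = neutral wells and 100% = wells with inactivated enzyme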
# Target sequence (P55789 whole entry, looked up): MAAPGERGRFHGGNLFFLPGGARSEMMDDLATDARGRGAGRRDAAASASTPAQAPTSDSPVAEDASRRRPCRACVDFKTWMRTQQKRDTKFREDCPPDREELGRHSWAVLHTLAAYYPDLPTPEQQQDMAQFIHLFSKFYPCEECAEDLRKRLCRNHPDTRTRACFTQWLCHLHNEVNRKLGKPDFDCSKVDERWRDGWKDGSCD
# B2AR ag – beta2AR agonists driving receptor internalization, primary screen, cell-based, FAP fluorogen, flow cytometry. hit rate 0.43% among 340,000. response, % (concentration not given with the values). Am2.2-beta2AR cells; reference of the scale not given here. Beta-2 adrenergic receptor (Homo sapiens), P07550. AID 504454, 2011;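 active = response above a set limit, near 3 SD of response in nonfluorescent compounds, cut at about 42% in these data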;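 also: stock transfer was 100 nL into about 11 µL; a reference agonist was the positive control; negative values mostly stem from fluorescent compounds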
# Target sequence (P07550 whole entry, looked up): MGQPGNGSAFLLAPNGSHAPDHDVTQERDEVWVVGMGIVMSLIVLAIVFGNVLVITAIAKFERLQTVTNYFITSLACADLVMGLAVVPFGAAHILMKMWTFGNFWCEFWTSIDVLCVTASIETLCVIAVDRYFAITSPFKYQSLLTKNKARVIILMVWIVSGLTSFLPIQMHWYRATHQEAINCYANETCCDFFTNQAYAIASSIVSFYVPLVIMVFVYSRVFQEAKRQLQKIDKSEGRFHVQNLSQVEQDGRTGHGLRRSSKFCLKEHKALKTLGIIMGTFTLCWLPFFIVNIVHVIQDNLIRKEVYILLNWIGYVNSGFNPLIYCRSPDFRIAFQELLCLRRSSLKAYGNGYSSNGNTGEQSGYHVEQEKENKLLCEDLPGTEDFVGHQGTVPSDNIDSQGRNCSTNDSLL
# Calb FLC – C. albicans growth inhibition with fluconazole, primary screen, CaCi-2 strain, Alamar Blue fluorescence. C. albicans CaCi-2 (fluconazole-resistant clinical isolate) + fluconazole, 48 h. growth inhibition, % (test concentration not listed). hit rate 0.57% among 300,000. AID 1979, 2009;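 active = most replicates above 75%; inconclusive = exactly half above 75%; inactive = most below 75%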;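 also: all wells also contain fluconazole at 8 µg/ml as a sub-toxic cotreatment; 0% = median of DMSO wells and 100% = median of geldanamycin control wells; wells of about 8 µL received 7.5 nL stock; the first replicate is given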
# Ecoli rRNA inh – reduced GFP signal of wild-type E. coli, primary screen, bacterial rRNA inhibitor project, GFP/RFP fluorescence, OD600, single point | AID 720706, 2013 | GFP signal change (wild-type ribosome), % (no concentration beside the values) | hit rate 1.6% among 350,000 | E. coli WT GFP vs humanized-ribosome RFP mutants, 24 h; active compounds read low; DMSO median 0, no signal -100;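 active = significant combined selectivity score with lowered wild-type GFP, culture density cut under 30%, mutant RFP and density less affected; inactive = any of these conditions unmet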; also: one replicate is shown; some compounds called inactive have numbers as strong as hits
# Beta cell apopt – inhibitors of cytokine-induced beta cell apoptosis, primary screen, luminescence. hit rate 0.8% among 300,000. protection from apoptosis, % (concentration not given with the values). AID 435005, 2010. INS-1E cytokine-induced death, ATP luminescence, 48 h; percent of positive-control rescue, neutral wells zero;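 active = all replicates at 75% or more, or half of them and the mean; inconclusive = half reach 75% but not the mean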;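 also: 0% = cytokine-treated negative control wells and 100% = positive control rescue; higher means more ATP so stronger rescue from cytokine killing; wells of about 40 µL received 100 nL stock; the first replicate is given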
# LANA-H2A inh – blockers of LANA interaction with H2A/H2B – biochemical, FP readout, HTS, primary screen; Protein LANA1 (Human herpesvirus 8 type P (isolate GK18)), Q9QR71; cell-free LANA-H2A/H2B peptide, fluorescence polarization; AID 2629, 2010; hit rate 0.6% among 320,000; inhibition, % (no concentration beside the values); in the data active = inhibition mostly above about 10%, no sharp cut-off; inactive = mostly below about 6.7%;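 also: stock transfer was 7.5 nL into about 10 µL; 0% = median of vehicle wells and 100% = median of positive control wells; one replicate is shown; the record names a cut of 25% in any replicate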
# Bfl-1 A1 inh – caspase 3/7 activation in MEF A1-2A-BIM cells, primary screen, A1 inhibitor project, cell-based, luminescence, HTS; hit rate 0.066% among 330,000; Caspase-Glo 3/7 luminescence, 3 h; percent of clofoctol response, vehicle zero; caspase activation, % (test concentration not listed);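 active = over half of replicate activation scores above 10%, or exactly half above 10 with the replicate mean above 10; inconclusive = replicate mean below 10 yet half the replicates above 10; inactive = over half of replicates below 10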;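 also: wells of about 30 µL received 50 nL stock; many hits fall short of the cut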
# Ecoli rRNA inh OD600 – second read-out of Ecoli rRNA inh, no call of its own (marks repeat the call); OD600 change, %; measured here: OD600 growth;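 optical density of the mix in the first replicate; 0 = DMSO median and -100 = no signal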
# Ecoli rRNA inh RFP – recorded beside Ecoli rRNA inh, whose call it bears; RFP signal change, %; measured here: RFP humanized mutant strains;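 first replicate; 0 = DMSO median and -100 = no signal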
# Starred values were filed as active, the others as inactive; ? = inconclusive; · = not tested or not shown. An excerpt; the hit share may differ from the screen's.
SMILES,T cruzi repl,ALR inh,B2AR ag,Calb FLC,Ecoli rRNA inh,Ecoli rRNA inh OD600,Ecoli rRNA inh RFP,Beta cell apopt,LANA-H2A inh,Bfl-1 A1 inh
Cc1ccc(S(=O)(=O)CCSc2n[nH]c(=O)n2-c2ccccc2)cc1,-3,1,-1,5,-4,-1,2.9,-2,-2.0,-0.6
COC(=O)COc1cccc2c(=O)n(CC(=O)N3CCCCC3)ccc12,-12,-7,6,5,4,12,-10,-2,2.3,0.5
CCN(CC)CCC(c1cc(OC)c(OC)c(OC)c1)c1c(OC)cc(OC)c2c(-c3ccccc3)cc(=O)oc12 (configuration not stated),36,-23,13,-8,8,-4,19,8,4.8,0.5
Cc1cc2cc(CN(Cc3ccc4c(c3)OCO4)C(=O)c3ccco3)c(=O)[nH]c2cc1C,27,-4,-3,27,·,·,·,-5,-2.0,1.8
COc1ccc(NC(=O)Nc2ccc(C(=O)N3CCOCC3)cc2)cc1OC,-9,-22,4,7,4,4,-1.4,1,-6.2,0.7
CS(=O)(=O)N(CC(=O)N1CCCCC1)Cc1ccccc1,-10,-4,0,-12,4,1,-1.3,-3,4.4,-0.4
COc1cccc(NC(=O)c2sc3nc4n(c(=O)c3c2C)CCC4)c1,3,-4,16,6,5,-9,13,-3,-0.8,-7.5
CCOC(=O)COc1nc(C)c(Br)c(OC)n1,-6,-3,-2,6,6,11,-1.7,-1,-1.9,0.2
COc1nc(-c2ccccc2Cl)ccc1C#N,0,98*,7,-14,·,·,·,-3,-3.8,-0.2
Cc1ccc2nc(SCC(=O)NC3CCCC3)nc(=O)n2c1,-9,-1,-2,-2,-1,-5,1.6,·,2.2,0.2
CN(C)CCNc1nc2sc3c(c2c(=O)n1Cc1ccccc1)CCCCC3,45,·,7,10,-11,-25,3.2,·,·,·
Cc1ccc(S(=O)(=O)Cc2ccc(C(=O)N3CCN(c4cccc(C)c4C)CC3)o2)cc1,-35,-4,-6,-4,0,-23,-6.1,30,2.1,0.1
COCCN1C(=O)C(=O)/C(=C(/O)c2ccc(OC(C)C)cc2)C1c1cccnc1 (configuration not stated),-2,-5,-4,-2,·,·,·,1,0.7,0.2
CCOc1ccc(/C(C)=N/NC(=O)c2nnn(-c3nonc3N)c2-c2cccs2)cc1,-10,-2,-1,10,0,1,-1.1,2,3.1,-0.1
CCN(C[C@H]1N[C@@](Cc2ccccc2)(C(=O)OC)[C@H]2C(=O)N(Cc3ccccc3)C(=O)[C@@H]12)S(=O)(=O)c1ccccc1,·,·,-5,·,7,29,0.1,10,-1.2,0.7
CCOc1ccc(C2c3c(oc4ccccc4c3=O)C(=O)N2CCCN2CCOCC2)cc1 (configuration not stated),-5,2,-4,5,·,·,·,-4,-0.8,0.5
COC(=O)c1sccc1N/N=C/c1cccc(Oc2ccccc2)c1,28,-15,0,-10,8,7,4.8,9,2.0,0.1
CCCN(CCC)c1nc(N)c(C#N)c(CC#N)c1C#N,21,-16,2,-1,·,·,·,-15,-2.9,0.2
COc1ccc(Cl)cc1S(=O)(=O)N1CCN=C1c1ccccc1,3,1,5,-2,-2,-3,2.5,-2,3.2,-0.5
N#CC1=C(N)NC(SCC(=O)c2ccc(Cl)cc2)=C(C#N)C12CCCC2,4,-9,18,3,-3,-1,0.4,8,1.8,0.5
C=C1CCN([C@@H](Cc2ccccc2)C(=O)NCc2ccc(Cl)c(Cl)c2)S(=O)(=O)c2ccccc21,42,-6,13,19,3,18,2.5,13,-3.1,-0.4
CC1(C)Cc2cccc(OCC(=O)N3CCN(S(=O)(=O)c4ccccc4)CC3)c2O1,-2,-4,3,?,·,·,·,5,2.2,0.8
CSc1nc2n(n1)C(c1cccc(F)c1)C(C(=O)Nc1ccc(C)cc1C)=C(C)N2 (configuration not stated),0,-1,-1,-1,·,·,·,16,-1.1,0.3
CC(C)(C)NC(=O)CN(C(=O)C(=O)Nc1ccc2c(c1)OCCO2)C1CC1,-1,-1,-12,1,1,10,1.8,0,2.8,-0.1
CSCCC(NC(N)=O)C(=O)Nc1ccc(F)c(Cl)c1 (configuration not stated),-8,1,-1,3,-4,-2,5.1,1,3.0,-0.4
O=C(CN1C(=O)NC(c2ccccc2)(c2ccccc2)C1=O)NC1CCCC1,·,1,-2,·,0,1,-0.3,-11,-7.2,0.3
COc1ccc(-c2oc(NC(=O)CSc3nncn3C)c(C#N)c2-c2ccc(OC)cc2)cc1,0,2,7,0,·,·,·,2,0.8,1.2
Cc1ccccc1NS(=O)(=O)c1ccc(Cl)cc1,-4,5,1,-12,-32,-46,-5.3,-1,2.6,-0.7
Cc1cc(C)c(OCCOCCN2CCCC2)c(C)c1,22,-1,-4,-11,11,9,0.1,-7,1.0,0.0
COc1ccccc1OCCNC(=O)C1CC(=O)N(Cc2ccc(C)cc2)C1 (configuration not stated),0,·,8,-1,0,-5,-0.3,0,·,-0.1
Cc1ccc(NC(=O)CSc2nnc(-c3ccncc3)n2C)cc1C,-27,-7,-5,25,·,·,·,-2,2.4,-0.3
Cc1ccc2c(c1)CCCN2CC(=O)Nc1cc(S(=O)(=O)N2CCCC2)ccc1Cl,·,-6,-1,·,·,·,·,-7,0.6,2.7
CCN(CC)CCCNC(=O)CCC(=O)Nc1ccc2nc(N3CCC(C)CC3)cc(C)c2c1,-1,?,12,13,5,-1,-8.9,2,0.4,0.0
CC(=O)NCCNC(=O)CCNC(=O)c1ccc(Cl)cc1,-7,4,2,4,11,12,-2.7,-4,-2.3,0.3
COc1ccc(CCN(C)C(=O)CSc2nnnn2C)cc1OC,-24,-1,-3,-21,11,4,-8.9,-4,6.5,0.5
O=C(CC1Nc2ccccc2NC1=O)Nc1ccccc1NC(=O)CC1Nc2ccccc2NC1=O (configuration not stated),8,·,·,-11,·,·,·,-2,3.6,-0.1
COc1ccccc1C1CC(=O)NC(C)=C1C(=O)OCC1CCCO1 (configuration not stated),11,-5,-3,4,·,·,·,-5,8.5,0.4
CC(C)(C)OC(=O)N1CCC(C(=O)N[C@H](C(=O)O)c2ccccc2)(c2ccccc2)CC1,1,-7,7,-8,14,10,1.3,-5,-1.9,0.2
CCCn1nc(C(=O)OCC(=O)Nc2cccc(OC)c2)c2ccccc2c1=O,-16,-12,6,4,3,1,-4.2,0,-0.1,0.9
C/C=C(\C)CN1CCCC(N(C)CCc2ccc(OC)c(OC)c2)C1 (configuration not stated),43,-2,3,-1,15,6,8.3,·,-8.9,0.5
CCOC(=O)N1CCC(NC(=O)C2CCCCN2S(=O)(=O)c2ccc(F)cc2)CC1 (configuration not stated),-15,-5,-9,-9,-4,-3,-0.5,1,2.3,0.6
CC(C)CN(C(=O)CCC(=O)OC(C)C(=O)Nc1cccc(C#N)c1)c1c(N)n(CC(C)C)c(=O)[nH]c1=O (configuration not stated),-1,-14,-7,-3,4,4,-0.9,-1,-2.2,0.0
Cc1cc(C)cc(C(=O)Oc2cc(C)[nH]c(=O)c2[N+](=O)[O-])c1,-8,-7,-4,1,0,9,-3.3,-2,0.2,0.2
Brc1ccc(OCCOCCN2CCOCC2)cc1,37,-13,-7,-11,0,-4,-3.2,-1,0.0,0.2
CCOC(=O)Cc1c(C)nc2cc(-c3ccc(C(C)(C)C)cc3)[nH]n2c1=O,-3,-6,-1,1,·,·,·,-4,1.1,0.2
Nn1c(Cc2cccc3ccccc23)nnc1SCC(=O)NC1CCS(=O)(=O)C1 (configuration not stated),-2,-17,1,-37,·,·,·,-1,1.1,0.9
COCCN(CCOC)C(=O)C1CCCN(S(=O)(=O)c2ccc(NC(=O)OC)cc2)C1 (configuration not stated),2,-3,1,-1,3,-3,-6.0,4,3.8,0.3
N/C(=N\O)c1ccc(Oc2ccccc2Cl)c([N+](=O)[O-])c1,-6,98*,2,-8,-6,-3,-1.1,-1,-0.7,0.3
CCCOc1ccc(C(=O)CCC(=O)Nc2ccc(N3CCN(C)CC3)cc2)cc1,·,-2,21,·,-2,-3,2.7,8,-0.4,-0.7
C/C(=N\NC(=O)c1c(Br)c(C)nn1C)c1ccc(NC(=O)c2ccoc2C)cc1,9,1,-1,-15,11,6,0.6,12,-2.1,-5.4
CN(C)S(=O)(=O)c1ccc(C(=O)Nc2cccnc2)cc1,-7,·,-6,-11,·,·,·,-6,·,0.9
Cc1nnc(SCc2cccc(Oc3ccccc3)c2)n1N,·,·,-18,14,·,·,·,0,0.1,0.1
Cc1ccc(S(=O)(=O)CCC(=O)Nc2nnc(-c3ccco3)o2)cc1,-25,0,-5,1,6,5,-1.7,-9,2.4,0.4
Cc1ccc(C(=O)NNC(=O)COc2ccc(Cl)cc2C)o1,·,2,1,·,-12,-9,-1.3,-6,2.3,0.2
NNc1ccc(Cl)nn1,-9,-2,-9,4,8,-6,0.2,3,-6.2,0.4
O=C(Nc1nnc(-c2cccc(F)c2)s1)Nc1ccccc1F,6,0,-3,16,1,4,-1.7,3,0.1,-0.6
CC(C)(CNC(=O)CNC(=O)C1CCCCC1)N1CCOCC1,·,·,-1,·,10,17,-1.3,2,2.0,2.4
NC(=S)NC(c1ccccc1)c1ccncc1 (configuration not stated),-5,38,-2,1,15,10,1.7,-1,1.7,0.3
C=C(Cl)COc1ccc2c(CC)cc(=O)oc2c1,·,-10,-9,·,-24*,-11*,-5.4*,3,0.4,0.2
CCCCCN(C(=O)COC(=O)CSc1ccc([N+](=O)[O-])cc1)c1c(N)n(CCCC)c(=O)[nH]c1=O,-4,-2,14,·,2,13,1.0,-6,2.4,-0.4

# Following part
SMILES,T cruzi repl,ALR inh,B2AR ag,Calb FLC,Ecoli rRNA inh,Ecoli rRNA inh OD600,Ecoli rRNA inh RFP,Beta cell apopt,LANA-H2A inh,Bfl-1 A1 inh
O=C(Nc1ccc(N2C(=O)C3CCCCC3C2=O)cc1Cl)c1cccs1 (configuration not stated),7,-1,-5,8,12,8,0.6,1,4.3,-0.9
O=C(Nc1ccc(Br)cn1)c1cccc(S(=O)(=O)N2CCCC2)c1,·,1,-6,·,-13,-27,-6.9,1,3.8,0.0
COc1ccc(-c2onc(C)c2-c2cnn(-c3ccccc3)c2)c(O)c1,-7,4,2,43,-44,-76,-11,-2,2.9,-0.4
CCCn1c(O)c(N=NC(=O)CNC(=O)/C=C/c2ccc(OC)cc2)c2ccccc21,10,-8,0,14,4,-4,0.2,-8,2.1,-0.5
CCn1c(SCc2ccc(OC)c(F)c2)nc2ccccc2c1=O,20,·,-11,1,-7,-17,-2.5,-2,0.3,0.8
